Bioassay records (PubChem BioAssay)
HPGD block = inhibitors of human 15-hydroxyprostaglandin dehydrogenase (HPGD). actives 4.3% (n = 150,000). Potency, µM, inactives show top-dose activity change, negative = inhibition, most hits filed as inhibitors. purified HPGD, NADH fluorescence kinetic, PGE2 substrate. P15428. AID 894; active = well fitted inhibition curve with a large enough effect (not every such curve was filed as active); inconclusive = small, poorly fitted or top-dose-only effect, or another doubt; inactive = no such curve, though single readings can be large or run the other way;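 further: top concentration of the series not given in the record; plate controls included wells without enzyme; inactives centre near -10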
Target sequence (P15428 whole entry, looked up): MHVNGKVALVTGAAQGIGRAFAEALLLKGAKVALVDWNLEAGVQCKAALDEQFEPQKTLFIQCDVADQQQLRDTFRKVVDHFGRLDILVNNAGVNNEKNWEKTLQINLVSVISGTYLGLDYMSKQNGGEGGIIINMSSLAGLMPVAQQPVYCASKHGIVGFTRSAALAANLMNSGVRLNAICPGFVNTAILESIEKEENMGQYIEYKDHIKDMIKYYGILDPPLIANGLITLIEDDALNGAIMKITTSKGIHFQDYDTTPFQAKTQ
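NADH formation kinetics: reaction with 30 uM PGE2 and 1 mM NAD+ (final), 20 nM enzyme, Tris-HCl pH 8 with Tween 20, after 15 min compound preincubation at room temperature. Fluorescence change, last versus first of five reads.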
The depositor's hits bear a star; u = inconclusive; & = joins results of further samples. On the % scale 0 is the no-effect control and ±100 the full control effect; potency means the concentration at half of the fitted maximal effect. Some of the compounds tested, so the mix of outcomes need not match the whole.

HPGD block | structure
-8% | Cc1cccc(NC(=O)c2c([N+](=O)[O-])c(C(C)(C)C)nn2C)c1
2% | O=C(CCNC(=O)Cn1cnc2ccccc2c1=O)NCC1COc2ccccc2O1 (stereo not given)
-9% | COc1ccc(C(=O)O)cc1S(=O)(=O)Nc1cccc(C)c1
-7% | O=C(NC(=S)Nc1cccc(Cl)c1N1CCCCC1)c1ccc2c(c1)OCCO2
-5% | O=C(CSc1ccccc1C(=O)NCCCN1CCCC1=O)NCc1ccco1
-15% | COc1cccc(COCCN2CCN(S(=O)(=O)c3ccc(C)cc3)CCC2=O)c1
-9% | COc1cc(OC)nc(NC(=O)CN2CCN(c3ccc(F)cc3)CC2)n1
-4% | NCCC[C@@H](CC(=O)N[C@@H]1CCNC[C@H]1C(=O)N[C@H](CC(=O)N[C@@H](CCC(=O)O)CC(=O)O)Cc1c[nH]c2ccccc12)NC(=O)C[C@H](Cc1c[nH]c2ccccc12)NC(=O)[C@@H]1CNCC[C@H]1N
-8% | Cc1ccc(NC(=O)NCCCN2CCOCC2)cc1
-21% | COc1cc(C)c(/C=C(\C#N)C(=O)Nc2cccc(C)c2)cc1C(C)C
-11% | Cc1cc(O)c(-c2cc(C(=O)NCc3ccc4c(c3)OCO4)[nH]n2)cc1C
u | CC1Cn2c(nnc2-c2cc3ccccc3cc2O)S1 (stereo not given)
-15% | COc1ccc(CCC(=O)c2c(O)cc(OC3OC(CO)C(O)C(O)C3O[C@@H]3OC(C)C(O)C(O)C3O)cc2O)cc1O (stereo not given in full)
-16% | Cc1ccc(N2CCN(c3ccc(C)cc3)C2c2ccncc2)cc1
16µM* | CCOC(=O)c1c(NC(=O)CSc2n[nH]c(-c3ccco3)n2)sc(C)c1C
-9% | CCc1nc2ccccc2n1CC(=O)N1CCN(S(=O)(=O)c2cccc(C(F)(F)F)c2)CC1
-9% | CC(=O)Nc1ccc(SCC(=O)N(CCC#N)c2ccc(C)cc2)cc1
-9% | CSC1=NC2(CCCCC2)C2=C(CCCC2)N1
-3%&-9% | CC(=O)C1=C(C)N(Cc2ccccc2)C(=O)N[C@H]1c1cccc(C(F)(F)F)c1
-19% | Oc1ccc(N2CCN(c3ncnc4sc5c(c34)CCC5)CC2)cc1

An excerpt of these results, with bars between the fields.
molecule | HPGD block
COc1ccc(CCC(=O)c2c(O)cc(OC3OC(CO)C(O)C(O)C3O[C@@H]3OC(C)C(O)C(O)C3O)cc2O)cc1O (stereo not given in full) | -15%
CCOC(=O)c1c(NC(=O)CSc2n[nH]c(-c3ccco3)n2)sc(C)c1C | 16µM*

(next part)
HPGD block | structure
-8% | Cc1cc(Nc2cccc(Cl)c2)nc(NCc2ccccc2)n1
-8% | O=C(CCc1ccccc1)N1CCN(c2ccc(Cl)cc2)CC1
u | O=C(COC(=O)c1ccccc1NS(=O)(=O)c1cccs1)NC1CCCCC1
-20% | CCCCCC(=O)NC(NC(=S)N1CCOCC1)C(Cl)(Cl)Cl (stereo not given)
20µM* | CCOC(=O)CSc1nc2c(sc(=S)n2-c2ccccc2)c(=O)[nH]1
-4% | O=C1N=C(N2CCOCC2)S/C1=C1\C(=O)N(Cc2ccccc2)c2ccc(Br)cc21
-5% | Cc1ccc(C)c(-n2c(SCC(=O)Nc3nnc(C)s3)nnc2-c2ccoc2C)c1
-3% | CCC1CCCCN1S(=O)(=O)c1ccc(C(=O)Nc2nnc(-c3ccccc3Cl)o2)cc1 (stereo not given)
-4% | CC(=O)OCC(=O)[C@@]1(O)CC[C@H]2[C@@H]3CCC4=CC(=O)CC[C@]4(C)[C@H]3[C@@H](O)C[C@@]21C
-7% | CNCCOc1nc(N2CCOCC2)nc(C)c1[N+](=O)[O-]
-18% | CC(C)CC(=O)NC(=S)Nc1ccc(S(=O)(=O)NC(C)(C)C)cc1
-19% | O=C1OCCC1Sc1ncnc2sc3c(c12)CCC3 (stereo not given)
-11%&-8%&-16% | Cn1cnc2c(NCc3ccccc3)nc(NCCO)nc21
-7% | COc1ccc(C2C(C#N)=C(N)OC3=C2C(=O)CC(C)C3)c(OC)c1OC (stereo not given)
-1% | Cc1ccc(C(=O)CSc2nccn2-c2ccccc2)cc1
-3% | O=C(N1CCOCC1)N(Cc1ccccc1)c1ccccn1
-13% | CCN1CC2=C(OC(N)=C(C#N)C2c2cccs2)/C(=C\c2cccs2)C1 (stereo not given)
-12% | c1cncc(CNc2ccc3c(c2)OCO3)c1
-8% | CC(C)n1c(O)c(N=NC(=O)Cn2ccc(C(F)(F)F)n2)c2ccccc21
-15% | COc1ccc(C2C(C(=O)NCc3ccccn3)c3ccccc3C(=O)N2C)cc1OC (stereo not given)
-24% | COc1ccc(Cl)cc1C(=O)Nc1ccc2c(c1)OCO2
-28% | c1coc(CSCc2cn3cccnc3n2)c1
-2% | CC1(C)CC(=O)C2=C(C1)N(c1ccccc1)C(N)=C(C#N)C2c1ccsc1 (stereo not given)
-14% | COc1ccc(-c2cc(C)nc(SCc3cccc(C(=O)O)c3)n2)cc1
2% | CCN(CC)C(=O)NC1CC(=O)N(c2ccc(OC)cc2)C1 (stereo not given)
-2% | Cn1cc2c(=O)n(/N=C/c3ccccc3)cnc2n1
-1% | NC(=O)c1ccccc1NC(=O)CCN1C(=O)c2ccccc2C1=O
-4% | CN(Cc1ccccc1)C(=O)C1CCN(Cc2ccc(F)cc2)CC1
-15% | Cc1cccc(N2CCN(C(=O)C(C)n3nc(C)n4c(cc5occc54)c3=O)CC2)c1C (stereo not given)
-5% | CCOC(=O)C(C)c1nn(C)c(=O)c2ccccc12 (stereo not given)
13µM* | NNc1nc(-c2ccccc2Cl)nc2sc3c(c12)CCCC3
-10% | O=C(NCc1ccco1)C1CCCN(S(=O)(=O)c2ccc(Cl)cc2)C1 (stereo not given)
-23% | Cc1ccc(NC(=O)Cn2cncc2-c2ccc([N+](=O)[O-])cc2)cc1C
-14% | Cc1csc(NC(=O)c2nn(C)c(C)c2[N+](=O)[O-])n1
u | CC1CCCN(C(=O)CSc2nnc(-c3cccnc3)n2C2CCCCC2)C1 (stereo not given)
-5% | O=C(O)/C(=C\c1ccccc1)Cc1ccccc1
-5% | Cc1nc2ccc(N=NC3=C(O)CCCC3=O)cc2s1
-8% | CCCCc1nc2c(=O)[nH]c3ccccc3c2o1
-27% | CC(NC(=O)c1cc(-c2ccc(Br)cc2)on1)c1ccccc1 (stereo not given)
0% | COc1ccc(-n2nc3c(c2NC(=O)C2CCCC2)CS(=O)C3)cc1 (stereo not given)
-7% | COc1cccc(-n2nc3c(=O)n(Cc4ccccc4Cl)nc(C)c3c2C)c1
-21% | CCCC1(C(=O)OCC)NC(c2ccc(N(C)C)cc2)C2C(=O)N(c3ccccc3)C(=O)C21 (stereo not given)
-14% | Cn1ncc2nnn(-c3ccccc3)c(=O)c21
-7% | Cn1c(SCC(=O)Nc2ccc3c(c2)oc2ccccc23)nnc1-c1ccccc1
u | Cn1c(SCc2cc(=O)n3cc(Br)ccc3n2)nnc1C1COc2ccccc2O1 (stereo not given)
-14% | Cc1cc(C)nc(N2CCCC(C(=O)Nc3ccc4nc(C)c(C)nc4c3)C2)n1 (stereo not given)
-3% | CCCc1nc(-c2ccc(-c3ccc(F)cc3)cc2)no1
-3% | O=[N+]([O-])c1ccc(Nc2ccccc2)nc1
-14% | COc1ccc(/C=C/C(=O)Oc2ccc(/C=N/NC(=O)COc3c(C)cccc3C)cc2)cc1
-29% | Nc1c(C(=O)Nc2nc3ccccc3s2)sc2nc(-c3cccs3)ccc12

The results go on:
HPGD block | structure
-23% | Cc1cc(C)c2[nH]c(=O)c(C(c3nnnn3Cc3ccc4c(c3)OCO4)N3CCCCC3)cc2c1 (stereo not given)
-4% | O=C(Nc1ccccc1)N(CCCN1CCOCC1)Cc1ccccc1F
-14% | COC(=O)CSC1=C(C#N)C(c2cccc(OC)c2)CC(=O)N1 (stereo not given)
-14% | O=C(Nc1ccccn1)c1cccc(S(=O)(=O)N2CCCCC2)c1
-4% | Cn1c(=O)[nH]c(=O)c2c1ncn2CCN1CCCCC1
-10% | CCCc1nc(C)c(-c2ccc(OC)c(OC)c2)c(=O)[nH]1
-11% | CC(OC(=O)c1cc2c(s1)CCCCC2)C(=O)NC(N)=O (stereo not given)
-1% | CCOC(=O)c1cccc(NC(=O)CCc2nc(-c3ccccc3F)no2)c1
-5% | O=C(Nc1cccnc1)C1CC(c2ccc(Cl)c(Cl)c2)=NO1 (stereo not given)
-9% | COC(=O)c1ccc(CN2C(=O)c3ccccc3S2(=O)=O)cc1
u | c1ccc(-c2ccc(N3CCCC4(CCNCC4)C3)cc2)cc1
-15% | COc1ccc(NC(=O)CN2CCCC(C)C2)c([N+](=O)[O-])c1 (stereo not given)
-3% | CC(C)Sc1nnc([C@H](C)NC(=O)OC(C)(C)C)o1
-20% | Fc1ccc2[nH]c3c(N4CCN(Cc5ccc6c(c5)OCO6)CC4)ncnc3c2c1
-9% | CNC(=O)CSc1nc2nn(-c3ccccc3)c(=O)c-2c2n1CCCCC2
u | COc1ccc(OC)c(-c2nnc(SCC(=O)N3CCCc4ccccc43)o2)c1
u | O=C1CSC(c2cn(-c3ccccc3)nc2-c2ccccc2)N1Cc1ccco1 (stereo not given)
-8% | CCOC(=O)c1sc(NC(=O)CCCn2nc([N+](=O)[O-])c(Cl)c2C)c(C(=O)OCC)c1C
-1% | COc1ccc(N2CCN(C(=O)c3ccc4c(Cl)c5c(nc4c3)CCCC5)CC2)cc1
-12% | Cc1ccc(S(=O)(=O)N2CCN(C(=O)c3ccccc3)C2C(C)C)cc1 (stereo not given)
u | CCOC(=O)c1c(NC(=O)C2C3C=CC(C3)C2C(=O)O)sc2c1CCC(CC)C2 (stereo not given)
-13% | O=C(c1cnccn1)N1CCC2(CC1)CN(C(c1ccccc1)c1ccccc1)C2
u | COC(=O)c1sc2nc(SCc3ccccc3C)n(N)c(=O)c2c1C
-1% | CC(=O)Nc1cc(-c2nn(C)c(=O)c3ccccc23)ccc1N1CCCCC1
-12% | Cc1onc(-c2ccccc2Cl)c1C(=O)N1CCN(c2ccccc2)CC1
-20% | Cc1ccc(OCCCN2CCOCC2)c([N+](=O)[O-])c1
-11% | COc1cc(COCC(O)CN2CCOCC2)cc(OC)c1OC (stereo not given)
-18% | CCOC(=O)C1=C(C)NC(C)=C(C(=O)OCC)C1c1cc(N)ccc1OC(F)F
-17% | O=C(NCCCN1CCCCC1)c1ccc2c(=O)n(CCc3ccccc3)c(=O)[nH]c2c1
-15% | O=C(CC(NS(=O)(=O)c1ccc(Cl)cc1)c1ccco1)NCc1ccco1 (stereo not given)
-10% | CCNC(=O)CN(c1ccccc1OC)S(=O)(=O)c1cccs1
-1% | Cc1ccc(-c2nnc(SCC(=O)Nc3nccs3)n2N)cc1
0% | O=C(O)C1CCCN1C(=O)OCc1ccccc1 (stereo not given)
-1% | COc1cc(NC(=O)CN(C)S(=O)(=O)c2ccc3c(c2)CCC(=O)N3)cc(OC)c1
-6% | COc1ccc(N2CCN(C(=O)c3cc4c(-c5ccc(Cl)cc5)nn(C)c4s3)CC2)cc1
u | O=C(Nc1ccccc1)N1CC=C(c2ccc(F)cc2)CC1
-12% | Cc1ccc(-c2nc3cc(N)ccc3o2)cc1
-22% | O=C(CC1(O)C(=O)N(Cc2cccc3ccccc23)c2ccccc21)c1cccnc1 (stereo not given)
u | COc1cccc(C2C=C(Nc3ccccc3)C(=O)N2c2ccccc2)c1 (stereo not given)
-10% | CCOC(=O)Cc1csc(NC(=O)c2ccc(Br)o2)n1
-3% | CCCCOc1ccc(-c2nnn(C(C)C(=O)OCC)n2)cc1 (stereo not given)
-16% | COCCn1c(C)c(C(=O)O)sc1=S
-12%&0% | COc1ccc(-c2ccc(N)[n+](CCCC(=O)O)n2)cc1
-7% | COc1ccc2c(c1)c(=O)c(C(=O)c1ccc(Cl)cc1)cn2CC(=O)Nc1ccc(F)cc1
u | Cc1cccc2c1N(C(=O)CN1C(=O)c3ccccc3C1=O)C(C)(C)c1ssc(=S)c1-2
-10% | Cc1ccc(C(NC(N)=O)c2ccccc2)cc1 (stereo not given)
-8% | CCCCC/C=N\NC(=O)Cc1ccc([N+](=O)[O-])cc1
u | CCc1cc(=O)oc2cc(OCc3nn[nH]n3)ccc12
-15% | CCOC(=O)c1ccc(N/C=C\C(=O)c2cccc(OC)c2)cc1
28µM* | O=[N+]([O-])/C(C(Cl)=C(Cl)Cl)=C(\Nc1ccc(F)cc1)n1cncn1

6 neighbouring compounds already listed:
HPGD block | structure
-7% | COc1ccc2c(c1)c(=O)c(C(=O)c1ccc(Cl)cc1)cn2CC(=O)Nc1ccc(F)cc1
u | Cc1cccc2c1N(C(=O)CN1C(=O)c3ccccc3C1=O)C(C)(C)c1ssc(=S)c1-2
-10% | Cc1ccc(C(NC(N)=O)c2ccccc2)cc1 (stereo not given)
-8% | CCCCC/C=N\NC(=O)Cc1ccc([N+](=O)[O-])cc1
u | CCc1cc(=O)oc2cc(OCc3nn[nH]n3)ccc12
-15% | CCOC(=O)c1ccc(N/C=C\C(=O)c2cccc(OC)c2)cc1

Later entries:
HPGD block | structure
-10% | O=C(NC(c1ccccc1)c1ccccc1)N1CCN(CCO)CC1
-7% | Cc1c(N2C(=O)CS/C2=N\N=C\c2ccc(Cl)cc2)c(=O)n(-c2ccccc2)n1C
-1% | CCn1c(SCC(=O)O)nc2sc3c(c2c1=O)CCC3
-2% | Cc1c(NC(=O)C2(C)CCCCC2)c(=O)n(-c2ccccc2)n1C
-6% | COc1cc2c(cc1OC)[C@H](Cc1ccc(O)cc1)NCC2

Copied from the list:
HPGD block, Cc1c(N2C(=O)CS/C2=N\N=C\c2ccc(Cl)cc2)c(=O)n(-c2ccccc2)n1C : -7%
HPGD block, CCn1c(SCC(=O)O)nc2sc3c(c2c1=O)CCC3 : -1%
HPGD block, COc1cc2c(cc1OC)[C@H](Cc1ccc(O)cc1)NCC2 : -6%
